AF4-AF9 inh = inhibitors of AF4 peptide binding to AF9, primary screen, biochemical, AlphaScreen, biotin-AF4 peptide, FLAG-AF9, single point; inhibition, % at 10 µM; Protein AF-9 (Homo sapiens), P42568; 350,000 tested, 0.47% active;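 active means every replicate reaching a set inhibition limit, whatever the replicate mean, cut at about 25% in these data; inconclusive means mean inhibition reaches that limit but some replicates miss it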;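 further: 0% = plate neutral control median and 100% = total signal loss; the record names both 10 and 1 µM as test concentration; the first replicate is given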
T cruzi repl = inhibitors of intracellular T. cruzi growth, primary screen, luminescence, NIH3T3 host cells. T. cruzi beta-gal in NIH3T3, 90 h. inhibition, % (concentration not given with the values). 300,000 tested, 1.4% active. AID 1885, 2009;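 active means mean inhibition across valid replicates above about 55%, limit read from the data; inconclusive means mean below that limit but half or more replicates reach it; inactive means mean below it, under half of replicates reach it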;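 further: signal also drops with host cell toxicity which is not excluded here; 0% = plate median of DMSO wells and 100% = zero luminescence signal; higher percent means less beta-gal luminescence so fewer parasites; stock transfer was 50 nL into about 50 µL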
LANA-H2A inh = blockers of LANA interaction with H2A/H2B – biochemical, FP readout, HTS, primary screen | cell-free LANA-H2A/H2B peptide, fluorescence polarization | inhibition, % (test concentration not listed) | Protein LANA1 (Human herpesvirus 8 type P (isolate GK18)), Q9QR71 | 320,000 tested, 0.6% active; in the data active means inhibition mostly above about 10%, no sharp cut-off; inactive means mostly below about 6.7%;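 further: stock transfer was 7.5 nL into about 10 µL; 0% = median of vehicle wells and 100% = median of positive control wells; one replicate is shown; the record names a cut of 25% in any replicate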
Target sequence (Q9QR71 whole entry, looked up): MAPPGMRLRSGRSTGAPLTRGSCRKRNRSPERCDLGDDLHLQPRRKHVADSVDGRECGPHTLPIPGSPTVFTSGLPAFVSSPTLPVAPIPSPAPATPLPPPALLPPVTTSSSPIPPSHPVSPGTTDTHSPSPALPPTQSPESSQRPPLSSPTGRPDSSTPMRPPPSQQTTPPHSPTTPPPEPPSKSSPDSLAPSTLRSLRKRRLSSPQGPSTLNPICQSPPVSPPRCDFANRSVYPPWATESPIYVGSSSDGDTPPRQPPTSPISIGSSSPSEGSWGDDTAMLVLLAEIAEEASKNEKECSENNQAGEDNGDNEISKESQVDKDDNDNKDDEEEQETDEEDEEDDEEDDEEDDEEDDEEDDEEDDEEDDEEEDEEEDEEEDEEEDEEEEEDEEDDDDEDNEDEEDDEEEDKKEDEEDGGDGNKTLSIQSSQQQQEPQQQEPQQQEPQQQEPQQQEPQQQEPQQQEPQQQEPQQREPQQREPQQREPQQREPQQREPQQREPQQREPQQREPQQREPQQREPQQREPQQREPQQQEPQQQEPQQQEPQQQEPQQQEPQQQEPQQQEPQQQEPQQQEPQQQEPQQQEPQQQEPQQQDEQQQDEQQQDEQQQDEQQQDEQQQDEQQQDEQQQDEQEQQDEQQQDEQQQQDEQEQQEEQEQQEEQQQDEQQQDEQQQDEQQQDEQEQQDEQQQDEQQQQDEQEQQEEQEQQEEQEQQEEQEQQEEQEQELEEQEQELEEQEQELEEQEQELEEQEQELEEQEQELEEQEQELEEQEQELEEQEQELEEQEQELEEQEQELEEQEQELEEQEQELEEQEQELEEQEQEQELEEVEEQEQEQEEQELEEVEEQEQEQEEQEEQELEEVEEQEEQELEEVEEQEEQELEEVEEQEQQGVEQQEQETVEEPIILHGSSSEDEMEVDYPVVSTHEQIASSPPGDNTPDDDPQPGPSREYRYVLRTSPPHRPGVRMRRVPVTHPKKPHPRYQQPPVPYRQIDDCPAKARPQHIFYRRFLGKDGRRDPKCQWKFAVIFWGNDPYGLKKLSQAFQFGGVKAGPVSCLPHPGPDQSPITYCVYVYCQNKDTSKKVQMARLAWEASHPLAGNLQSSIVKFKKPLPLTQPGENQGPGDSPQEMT
Calb FLC = C. albicans growth inhibition with fluconazole, primary screen, CaCi-2 strain, Alamar Blue fluorescence; C. albicans CaCi-2 (fluconazole-resistant clinical isolate) + fluconazole, 48 h; growth inhibition, % (test concentration not listed); 300,000 tested, 0.57% active;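 active means most replicates above 75%; inconclusive means exactly half above 75%; inactive means most below 75%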;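 further: all wells also contain fluconazole at 8 µg/ml as a sub-toxic cotreatment; 0% = median of DMSO wells and 100% = median of geldanamycin control wells; wells of about 8 µL received 7.5 nL stock; the first replicate is given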
Vif A3G = inhibitors of Vif binding to APOBEC3G peptide, primary screen, biochemical, TR-FRET, GST-Vif 1-94, biotin-A3G peptide, dose response retest (AID 1117319) | Virion infectivity factor (Human immunodeficiency virus type 1 group M subtype B (isolate … | TR-FRET GST-Vif / biotin-A3G peptide binding; higher % means a stronger effect; test concentration not given here; strong numbers were not always called active | inhibition, %; hits with a dose series show IC50 in µM | 260,000 tested, 0.57% active;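 active means above the screen mean plus three standard deviations and confirmed in dose response; inconclusive means results disagree or hit not tested in dose response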;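 further: Vif residues 1-94 fused to GST binding biotinylated APOBEC3G peptide 110-148; 0% = full assay without inhibitor and 100% = GST in place of GST-Vif; retest series ran down from 100 µM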
RanGTP-Imp inh = inhibitors of RanGTP-importin-beta interaction, primary screen, biochemical, FRET, CFP-Ran, YFP-importin-beta, homogeneous; Ran GTPase (GTP-bound) - importin-beta complex; cell-free CFP-Ran/YFP-importin-beta FRET ratio; inhibition, % (concentration not given with the values); 300,000 tested, 1.1% active; AID 2216, 2009;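 active means most replicates above 15%; inconclusive means exactly half above 15%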;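 further: 0% = DMSO wells and 100% = Ran loaded with GDP instead of GTP; wells of about 40 µL received 100 nL stock; the first replicate is given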
A1 inh = caspase 3/7 activation in MEF A1-2A-BIM cells, primary screen, A1 inhibitor project, cell-based, luminescence, HTS. Caspase-Glo 3/7 luminescence, 3 h; percent of clofoctol response, vehicle zero. 330,000 tested, 0.066% active. caspase activation, % (no concentration beside the values);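 active means over half of replicate activation scores above 10%, or exactly half above 10 with the replicate mean above 10; inconclusive means replicate mean below 10 yet half the replicates above 10; inactive means over half of replicates below 10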;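 further: wells of about 30 µL received 50 nL stock; many hits fall short of the cut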
Beta apoptosis = inhibitors of cytokine-induced beta cell apoptosis, primary screen, luminescence; INS-1E cytokine-induced death, ATP luminescence, 48 h; percent of positive-control rescue, neutral wells zero; protection from apoptosis, % (concentration not given with the values); 300,000 tested, 0.8% active;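 active means all replicates at 75% or more, or half of them and the mean; inconclusive means half reach 75% but not the mean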;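 further: 0% = cytokine-treated negative control wells and 100% = positive control rescue; higher means more ATP so stronger rescue from cytokine killing; wells of about 40 µL received 100 nL stock; the first replicate is given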
Active calls of the source: *; ? = inconclusive; / = not tested or not shown; & = joins results of further samples.

No.	SMILES	AF4-AF9 inh	T cruzi repl	LANA-H2A inh	Calb FLC	Vif A3G	RanGTP-Imp inh	A1 inh	Beta apoptosis
1	CC(NC(=O)CSc1cccc(C(F)(F)F)c1)c1ccccc1 (stereo not given)	-0.5	-8	6.2	10	/	-4.3	1.0	-10
2	CCOc1ccccc1NC(=O)[C@@H](NC(=O)c1ccccc1F)C(C)C	-2.4	-10	-0.9	-5	/	0.9	0.0	-6
3	CCc1ccccc1N(CC)C(=O)c1cn(CC)c(=O)c2cc(OC)c(OC)cc12	/	3	6.5	2	-2%	0.6	-0.6	2
4	Cc1cc(N2C(=O)C(O)=C(C(=O)c3cccs3)C2c2ccc(F)cc2)no1 (stereo not given)	-2.1	-23	3.0	1	/	-3.1	-1.2	-7
5	CCn1c(O)c2ccc(C(=O)N=NC(=O)c3ccccc3)cc2c1O	0.4	-14	0.0	-3	-1%	6.8	0.0	-4
6	O=C(CNC(=O)c1ccncc1)N/N=C/c1ccccn1	0.1	-3	-3.0	35	/	0.3	1.0	-5
7	CCOC(=O)C1C(=O)NC(c2ccccc2)=NC1c1ccc(OC)cc1 (stereo not given)	-3.7	3	-0.4	-8	1%	6.0	0.2	-2
8	COC(=O)c1cccc(C(=O)N2CCC(CCC(=O)NCc3ccc(F)cc3)CC2)c1	1.4	-30	-0.3	7	0%	1.1	-0.1	-2
9	O=C(CSc1nnc2ccc(-c3ccncc3)nn12)N1CCCCC1	-14	-5	-3.6	-2	13%	0.6	0.5	4
10	COc1cc(/C=C/C(=O)O)ccc1OCc1cnc(Cl)s1	-0.3	-4	1.9	-6	1%	-0.1	-0.2	/
11	Cc1ccc(S(=O)(=O)NCC(=O)N(CC(=O)NCc2ccccc2)CC2CCCO2)cc1 (stereo not given)	/	11	2.8	-9	1%&3%	0.0	-0.7	3
12	CCCCNC(=O)n1c(=O)oc2ccc(Cl)cc21	/	-1	-1.0	-4	23%	6.9	0.6	-2
13	COCc1nnc(NC(=O)CCc2ccc(OC)cc2)s1	0.4	-9	-3.6	-2	/	4.2	1.8	-4
14	CCOC(=O)c1sc(NC(=O)CSc2nnc(Cc3ccccc3)o2)c(C(=O)OCC)c1C	/	23	-3.8	-9	-1%	1.5	0.1	-3
15	Cn1cccc/c1=N\c1cccc[n+]1C	-0.7	-13	-0.4	0	-2%	-2.2	0.7	32
16	Cn1c2ccccc2c2nnc(SCC(=O)Nc3cccc(C(=O)O)c3)nc21	0.9	-4	1.7	0	-1%	-1.0	0.0	-1
17	Cc1ccc(-c2nnc(-c3ccccc3Br)o2)cc1	-4.2	-13	1.6	-5	/	5.0	-5.7	0
18	O=C(CC1CCCCC1)Nc1ncn[nH]1	/	-29	1.6	-1	27%	-2.1	2.6	1
19	Cc1cccc(N2CC(C(=O)Nc3nccs3)CC2=O)c1C (stereo not given)	0.1	2	1.8	3	/	4.1	0.1	/
20	CCCCCOc1ccccc1C(=O)NCCCC(=O)O	/	-11	1.3	1	2%	2.3	0.1	4
21	O=c1nc2ccccc2c2n1CC(CN1CCN(c3cccc(Cl)c3)CC1)N2 (stereo not given)	/	-40	-5.5	42	23%	?	0.3	-4
22	CC(C)Nc1nc(NC(C)C)nc(Oc2ccc(/C=N/O)cc2)n1	/	10	-1.6	-5	-3%	9.1	-1.8	11
23	CCc1nnc(NS(=O)(=O)c2ccc(N=CC3=C(O)CC(C)(C)CC3=O)cc2)s1	-3.7	-18	10	-18	1%	3.6	0.5	-4
24	CC(C)(C)OC(=O)N1CCCN(C(=O)Nc2cccc(Cl)c2)CC1	1.5	-13	-5.6	-2	?	0.9	0.6	-5
25	O=C(N/N=C/c1ccoc1)c1ccccc1O	-0.6	6	-2.4	-4	14%	1.1	1.1	18
26	C=CCn1c(SCC(=O)NC2CCS(=O)(=O)C2)nnc1-c1ccc(Cl)cc1 (stereo not given)	0.4	-5	-0.9	9	5%	-5.8	0.1	-3
27	CC(=O)NC(CCS(C)(=O)=O)C(=O)Nc1cccc2ccccc12 (stereo not given)	7.7	-21	1.1	1	-5%	-0.5	1.0	-8
28	CCCC1(c2ccccc2)NC(=O)N(CC(=O)Nc2cc(C)ccc2OC)C1=O (stereo not given)	0.0	16	-1.3	1	/	?	-0.4	93*
29	Cc1ccc(C(=O)Nc2ccnc(-c3ccncc3)n2)cc1	-3.8	-37	-1.8	1	31%	-0.6	0.7	3
30	C=C(C)c1nc2cc(OC)c(OC)cc2c(=O)o1	2.2	-10	1.2	30	2%	4.5	-0.4	-6
31	COc1ccc(N(CC(C)C)S(=O)(=O)c2nnc(NC(=O)c3ccco3)s2)cc1	-8.8	-12	2.0	6	25%	3.2	-0.5	0
32	Cc1cccc(C(=O)NC2CCN(CC(=O)N3CCOCC3)CC2)c1	/	-7	5.5	18	7%	0.9	0.3	-3
33	Cc1ccc2c(c1)C1CC(C)(O2)N(c2cccc(C(=O)N3CCN(c4ccccn4)CC3)c2)C(=O)N1 (stereo not given)	-3.6	16	7.8	3	/	0.2	0.3	-4
34	CCOC(=O)C(NC(=O)c1ccccc1)(OCc1ccc(F)cc1)C(F)(F)F (stereo not given)	1.4	-13	-5.5	2	/	0.5	0.6	-3
35	CN1C(=O)/C(=C/C=C2\SCCN2C)SC1=S	/	1	/	-9	6%	-1.9	/	/
36	C/C(CC(=O)Nc1ccc(N(C)C)cc1)=N\NC(=O)c1ccc([N+](=O)[O-])cc1	1.4	5	-4.0	16	/	2.2	1.2	3
37	CCN1CCc2c(sc(NC(=O)CN3C(=O)c4ccccc4C3=O)c2C(N)=O)C1	-0.7	-7	-3.4	-10	2%	-4.2	0.1	4
38	C/C(O)=C(\N=Nc1cc(C)ccc1O)C(N)=O	-0.2	-2	7.8	-27	14%	0.9	-1.4	2
39	CCOc1ccc(S(=O)(=O)N(CC(=O)NCC(F)(F)F)Cc2ccco2)cc1	1.1	-5	-13	6	/	0.8	0.0	/
40	COC(OC)c1ccc(C#N)c(=O)[nH]1	-2.0	3	1.4	-12	/	-0.2	0.0	2
41	O=C(CSc1nc(C(F)(F)F)cc(=O)[nH]1)N1CCOCC1	-1.1	1	-2.0	-10	4%	-0.1	-0.7	/
42	C/C(CC(=O)Nc1ccc(Cl)cc1)=N\NC(=O)C(=O)NCCO	/	-2	-1.2	-5	21%	4.5	0.0	-6
43	COC(CNC(=O)c1ccc(-n2c(=S)[nH]c3ccccc3c2=O)cc1)OC	0.2	-18	2.0	8	-7%	3.4	0.8	1
44	COc1cc(OC)cc(C(=O)OCC(=O)c2cc(C)n(CC3CCCO3)c2C)c1 (stereo not given)	-0.8	/	-1.7	/	9%	/	-4.3	-2
45	CCC(C(=O)OCC(=O)Nc1ccccc1-c1ccccc1)c1ccccc1 (stereo not given)	/	-12	-0.7	7	-3%	0.1	0.6	-2
46	COc1ccc(C)cc1NC(=O)CO/N=C(\N)CC(=O)NC1CCCCC1	0.2	/	0.8	/	-16%	/	0.8	-3
47	O=C(Nc1ccccc1N1CCN(c2ccccc2)CC1)c1cccc(F)c1	/	24	-5.3	24	3%	0.0	-0.7	6
48	CN(C)S(=O)(=O)c1ccc(N2CCCC2)c(C(=O)OCC(=O)NC2CCCCC2)c1	-1.1	4	1.6	-6	-2%	3.3	0.1	-6

In the list so far, these contain a CF3 group:
No.	SMILES	AF4-AF9 inh	T cruzi repl	LANA-H2A inh	Calb FLC	Vif A3G	RanGTP-Imp inh	A1 inh	Beta apoptosis
1	CC(NC(=O)CSc1cccc(C(F)(F)F)c1)c1ccccc1 (stereo not given)	-0.5	-8	6.2	10	/	-4.3	1.0	-10
34	CCOC(=O)C(NC(=O)c1ccccc1)(OCc1ccc(F)cc1)C(F)(F)F (stereo not given)	1.4	-13	-5.5	2	/	0.5	0.6	-3
39	CCOc1ccc(S(=O)(=O)N(CC(=O)NCC(F)(F)F)Cc2ccco2)cc1	1.1	-5	-13	6	/	0.8	0.0	/
41	O=C(CSc1nc(C(F)(F)F)cc(=O)[nH]1)N1CCOCC1	-1.1	1	-2.0	-10	4%	-0.1	-0.7	/

The list goes on:
No.	SMILES	AF4-AF9 inh	T cruzi repl	LANA-H2A inh	Calb FLC	Vif A3G	RanGTP-Imp inh	A1 inh	Beta apoptosis
49	N#Cc1nc(-c2ccccc2)oc1NCCCn1ccnc1	2.1	19	0.3	-4	-5%	-0.7	1.3	-3
50	Cc1ccc(OCC(=O)NNC(=S)NC(=O)C2CC2)c(C)c1	0.3	/	-0.1	103*	/	/	0.3	7
51	CC(C)C12CN3CC(C(C)C)(CN(C1)C3c1ccc3c(c1)OCO3)C2=O (stereo not given)	4.6	-4	-2.0	-11	3%	-4.9	-0.2	6
52	Cc1noc(C)c1C(=O)OCC(=O)Nc1cc(S(=O)(=O)N2CCOCC2)ccc1Cl	/	-9	-1.8	-4	-2%	-4.6	-2.4	-1
53	C[C@H](CO)N1C[C@H](C)[C@@H](CN(C)C(=O)Nc2ccc3c(c2)OCO3)Oc2c(NC(=O)Nc3ccc(C(F)(F)F)cc3)cccc2C1=O	5.2&-7.3	/	-1.9	/	/	/	0.0	3
54	CC(=O)Nc1ccc2c(c1)C(=O)N(c1cccc(C)c1)C2=O	-1.3	-15	2.3	-1	7%	3.1	0.2	-6
55	COc1ccc(-c2c[n+](CC(=O)c3ccccc3)c3n2CCCCC3)cc1	4.4	28	9.3	-4	1%	2.1	0.2	12
56	Cc1ccc(C)c(Nc2c([N+](=O)[O-])cc(C(=O)N3CC(=O)Nc4ccccc43)cc2[N+](=O)[O-])c1	/	66*	-2.5	15	1%	-4.4	0.3	10
57	CN(C)S(=O)(=O)c1ccc(C(=O)Nc2cc(=O)n(C)c(=O)n2C)cc1	-0.6	6	1.7	7	-5%	-5.0	1.1	6
58	CCOc1ccc(S(=O)(=O)Nc2ccccc2C(=O)N2CCCC2)cc1	-1.6	-9	2.6	-22	10%	-2.5	-1.3	10
59	Cc1ccc(/C=C/C(=O)c2c(C)nc3ccccn23)cc1	/	-31	0.3	52	-2%	3.1	-4.8	18
60	COc1ccc(-c2oc3ccccc3c2C(=O)Oc2ccccc2)cc1	-3.4	2	-3.9	-8	/	0.7	-0.8	3
61	COc1ccc(NC(=O)C2CCOC(C)(C)C2)cc1 (stereo not given)	1.8	0	2.2	-10	/	2.9	?	0
62	CCC(C)[C@H](NC(=O)Nc1cccc(OC)c1)C(=O)OC (stereo not given in full)	/	-13	-4.7	-12	7%	0.4	0.1	-3
63	N#Cc1ccc(OCC(=O)OCC(=O)NC2CC2)cc1	-1.7	/	-0.1	/	/	/	0.4	-16
64	Cn1c(=O)c2c(ncn2CC(O)CNc2ccc(Br)cc2)n(C)c1=O (stereo not given)	/	2	2.8	-4	-3%	?	0.0	1

Screening results as filed in PubChem BioAssay.
